Compound activity as filed in PubChem BioAssay.
RecA intein inh: Mtb RecA intein splicing inhibitors, primary screen, biochemical, fluorescence, HTS; Protein RecA (Mycobacterium tuberculosis (strain ATCC 25618 / H37Rv)), P9WHJ3; 0.75% of 290,000 active; inhibition, %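 (about 9 µM by stock and volumes)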; cell-free RecA intein splicing; AID 2221, 2009; in the data active = inhibition above about 30%; inconclusive = no clear call, values can overlap the other calls;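 also: 0% = vehicle wells and 100% = reference inhibitor control wells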
Target sequence (P9WHJ3 whole entry, looked up): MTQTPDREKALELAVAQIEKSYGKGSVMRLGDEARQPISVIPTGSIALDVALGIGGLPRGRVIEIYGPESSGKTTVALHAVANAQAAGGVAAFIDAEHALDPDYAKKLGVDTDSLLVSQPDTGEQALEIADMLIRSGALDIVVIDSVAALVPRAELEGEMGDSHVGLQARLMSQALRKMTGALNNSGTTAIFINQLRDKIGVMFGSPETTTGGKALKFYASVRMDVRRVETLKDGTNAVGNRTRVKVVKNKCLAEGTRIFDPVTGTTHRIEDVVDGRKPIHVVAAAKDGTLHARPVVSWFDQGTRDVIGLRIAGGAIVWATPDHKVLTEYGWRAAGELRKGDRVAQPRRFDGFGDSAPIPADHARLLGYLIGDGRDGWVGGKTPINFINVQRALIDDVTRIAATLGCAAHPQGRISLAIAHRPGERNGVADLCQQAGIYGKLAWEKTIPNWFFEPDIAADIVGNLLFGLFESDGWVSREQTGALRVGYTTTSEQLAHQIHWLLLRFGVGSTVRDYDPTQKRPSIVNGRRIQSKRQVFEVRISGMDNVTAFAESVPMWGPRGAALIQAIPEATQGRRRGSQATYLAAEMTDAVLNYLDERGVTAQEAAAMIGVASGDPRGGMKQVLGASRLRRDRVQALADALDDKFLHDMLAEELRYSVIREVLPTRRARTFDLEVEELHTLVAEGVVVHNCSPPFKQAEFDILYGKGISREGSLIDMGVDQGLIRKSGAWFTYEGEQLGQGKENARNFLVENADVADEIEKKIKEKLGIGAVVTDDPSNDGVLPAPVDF
Mtb H37Rv: M. tuberculosis H37Rv growth inhibitors, H37Rv strain (AID 1626). inhibition, % at 10 µM, or IC50 in µM where a hit was titrated. 0.95% of 220,000 active. M. tuberculosis H37Rv growth inhibition; higher % means a stronger effect;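 active = confirmed in a dose series; inconclusive = inhibition above 80% but not taken into the dose series; inactive = below 80% or under 30% at every dose of the series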;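 also: bacteria incubated seven days before Alamar blue readout; 0% = bacteria only wells and 100% = bacteria with antibiotic wells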
Arbovirus anti: antivirals against arbovirus infection, primary screen, cell-based, full library, 10K replicate subset. inhibition, % at 10 µM. 0.37% of 200,000 active. arbovirus infection cell-based antiviral screen;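 active = inhibition from about 30%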;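 also: bluetongue infection of BSR cells; cell survival read as ATP light after 72 h; 0% = infected wells without compound and 100% = uninfected wells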
YopH PTP inh: YopH tyrosine phosphatase inhibitors, primary screen, biochemical, fluorescence Ex485/Em525; YopH tyrosine phosphatase [Yersinia enterocolitica]; inhibition, %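 (about 10 µM by stock and volumes)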; 0.16% of 140,000 active;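 active = inhibition of 50% or more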;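 also: controls were vehicle for no effect and minimum signal wells for full effect; inactives centre near -20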
Mtb betalactam: beta-lactam sensitization of Mtb H37Rv, H37Rv. M. tuberculosis H37Rv growth with meropenem, percent inhibition; hits of this screen are not shown here. inhibition, % at 25 µM. 0.27% of 330,000 active;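 active = about 74% or more and at least 40 points above the plate without the antibiotic, then above 30% in a dose series; inconclusive = first-round hits that could not be retested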;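 also: growth measured after seven days incubation then overnight dye step; 0% = bacteria only wells and 100% = bacteria with antibiotic; twin plates without the antibiotic show which effects depend on it; some results filed as inactive read as strong as hits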
Arbovirus anti repeat: recorded beside Arbovirus anti, whose call it bears; inhibition, %; measured here: 10K subset replicate screen; many hits read low in the repeat;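 first of two repeat runs on a subset; 0% = infected and 100% = uninfected wells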
The depositor's hits bear a star; ? = inconclusive; . = no result given. These rows are one share of the data. The share of hits here may be higher or lower than overall.

SMILES	RecA intein inh	Mtb H37Rv	Arbovirus anti	YopH PTP inh	Mtb betalactam	others
C=CCSc1n[nH]c(=O)n1-c1cccc(C(F)(F)F)c1	0.2	-2%	.	.	0
CCCC(=O)Nc1cc(C)cn(Cc2c(F)cccc2Cl)c1=O	-1.9	.	.	.	-1
O=C(/C=C/c1ccc(O)c(O)c1)OC1C(O)CC(OC(=O)/C=C/c2ccc(O)c(O)c2)(C(=O)O)CC1O (stereo not given)	-4.4	-16%	.	.	5
Nc1nc(NCc2ccc(Cl)cc2)nc(NCCO)c1[N+](=O)[O-]	.	-1%	.	.	-1
COC(=O)c1ccc(CSc2nc(N)cc(N)n2)cc1	-0.4	-1%	4	-17	-5
COc1ccccc1C1CC(c2cccc(NS(C)(=O)=O)c2)=NN1S(=O)(=O)c1ccccc1 (stereo not given)	-1.4	.	.	.	1
Cc1cc(/C=C2/C(=O)N(C)C(=S)N2C)ccc1N1CCCC1	-2.2	6%	6	.	14
O=C(C1CC1)N1N=C(c2ccccc2)CC1(O)C(F)(F)F (stereo not given)	3.0	.	.	.	-26
CCn1c(N)c(Br)c(=O)[nH]c1=O	3.9	-7%	4	.	0
O=[N+]([O-])c1cccc(S(=O)(=O)c2cccc([N+](=O)[O-])c2)c1	-0.8	-1%	-3	.	-6

The last four records of the section before open the next one.
SMILES	RecA intein inh	Mtb H37Rv	Arbovirus anti	YopH PTP inh	Mtb betalactam	others
Cc1cc(/C=C2/C(=O)N(C)C(=S)N2C)ccc1N1CCCC1	-2.2	6%	6	.	14
O=C(C1CC1)N1N=C(c2ccccc2)CC1(O)C(F)(F)F (stereo not given)	3.0	.	.	.	-26
CCn1c(N)c(Br)c(=O)[nH]c1=O	3.9	-7%	4	.	0
O=[N+]([O-])c1cccc(S(=O)(=O)c2cccc([N+](=O)[O-])c2)c1	-0.8	-1%	-3	.	-6
Cc1cc(NS(=O)(=O)c2ccc(NC(=O)CSc3nnc(-c4ccco4)n3Cc3ccco3)cc2)nc(C)n1	0.0	-2%	-1	-34	?
CC(=O)Nc1ccccc1OC(C)C(=O)NC(C)c1ccc(F)cc1 (stereo not given)	-0.9	3%	4	-34	10
COc1ccc(CN2CCN(C(=O)c3ccco3)CC2)cc1OC	-0.8	7%	0	.	-10
Cc1ccc(C)n1NC(=O)c1ccccc1O	4.5	-4%	-4	-113	7
O=C(NCCCSc1ccccc1)c1cc(Cl)ccc1O	16	.	.	.	15
C=C(C)CSc1nc(C)c(Cc2ccccc2)c(=O)[nH]1	2.2	-9%	4	-7	-3
Cc1ccc(-n2c(-c3ccncc3)nnc2-c2cccs2)cc1	-4.4	1%	.	-2	-10
CCOC(=O)Cc1nnc(NC(=O)CSc2nncn2C)s1	5.7	-3%	-4	-36	-2	Arbovirus anti repeat=4
O=C(CC1C(=O)NCCN1C1CCCC1)NCc1cccc(OC(F)(F)F)c1 (stereo not given)	-1.5	.	.	.	-5
CNc1nc(-c2ccc3c(c2)CCN3C(=O)c2ccc(F)cc2)cs1	.	12%	-6	.	.
COc1ccc(NC(=O)CN(C)C(=O)Cc2ccc(S(=O)(=O)N3CCOCC3)s2)cc1	9.6	.	.	.	-6
CCOC(=O)C1CCN(C(=O)CN2C(=O)COc3ccc(C(C)(C)C)cc32)CC1	5.4	.	.	.	-7
NNC(=O)c1ccc(N2CCCCCC2)c([N+](=O)[O-])c1	2.0	-17%	-7	.	-3
Cc1ccc(Nc2nc(NCc3ccco3)c3ccccc3n2)cc1	11	?	-26	.	100
CCOc1ccc(CC(=O)N/N=C(\C)c2cccnc2)cc1OCC	-2.3	.	.	.	3
CCOC(=O)NC(=O)C(/C=N/c1sccc1C(=O)OC)=C(\C)O	-0.2	10%	-2	.	13
COc1cccc(-c2nnc(SC(C(=O)c3c[nH]c4ccccc34)c3ccccc3)n2C)c1 (stereo not given)	-2.3	3%	-9	-13	2
COc1ccccc1N1CCN(C(=O)C2CCN(C(=O)c3ccccc3C)CC2)CC1	-2.7	.	.	.	-13
CC(=O)c1ccc(N2CCN(C(=O)COc3ccccc3F)CC2)c(F)c1	1.7	2%	2	-12	-7
Cc1cc(C)c2nc(C(F)(F)F)nc(NCCCN3CCCC3=O)c2c1	-2.5	-3%	4	2	3
O=C(N/N=C/c1ccc(N2CCOCC2)o1)c1cccc(C(F)(F)F)c1	1.6	-4%	-5	-1	-18
CCCCn1cnc2cc(NCc3ccncc3)ccc21	-2.2	1%	-3	-24	24
Cc1cc(C(=O)COC(=O)c2ccc3c(c2)OCO3)c(C)n1CC1CCCO1 (stereo not given)	2.3	-16%	0	.	2
O=C1N=C(N2CCOCC2)S/C1=C\c1ccc(-c2ccccc2Cl)o1	-6.2	2%	-9	-12	-2
COc1cccc(N2[C@@H](CC(C)=O)c3ccc(/C=C/C(C)=O)cc3S2(=O)=O)c1	2.1	1%	.	.	78
CC(=O)c1ccc(COC(=O)c2cc3ccccc3oc2=O)cc1	1.0	.	.	.	14
CC1CCC(=O)N(CCSc2ccccc2)CC1 (stereo not given)	-1.0	.	.	.	-8
COc1cc(S(=O)(=O)N2CC(=O)Nc3ccccc32)ccc1NC(C)=O	-2.0	.	.	.	1
COC(=O)c1c(C)[nH]c(C(=O)OCC(=O)N2c3ccccc3NC(=O)C2(C)C)c1C	-5.3	-1%	4	-17	-2
O=C(N=C1SC2CS(=O)(=O)CC2N1c1cccc(Cl)c1Cl)C1CCCO1 (stereo not given)	2.9	.	.	.	7
COc1ccc(NC(=O)C2=C(C)NC(=O)NC2c2cccc(OC)c2OC)c(OC)c1 (stereo not given)	-0.1	0%	-1	-6	-15	Arbovirus anti repeat=6
CN(C)S(=O)(=O)c1cccc(C(=O)Nc2cc(Cl)cc(Cl)c2)c1	8.5	18%	-35	-25	97
Cc1ccc(-c2nnc3sc(C4COc5ccccc5O4)nn23)cc1 (stereo not given)	.	4.8µM*	3	-25	91
Fc1ccc2nc(Nc3nc4cc5c(cc4s3)OCCO5)sc2c1	-4.3	62%	10	3	61
O=C(CCc1ccccc1)Nc1nc2nc(-c3ccccc3)cc(=O)n2[nH]1	-0.3	-1%	8	-44	42
CCCc1cc(=O)[nH]c(SCC(=O)N(CC)c2c(N)n(Cc3ccccc3)c(=O)[nH]c2=O)n1	-2.7	.	.	.	-11
COc1ccccc1N1CCN(C(=O)c2sc3nc(-c4ccccc4)cn3c2C)CC1	2.2	10%	-22	-6	25
Nn1c(C2CCCCC2)nc2ccccc2c1=O	1.2	4%	.	.	-8
CCNS(=O)(=O)c1ccc2nc(NC(=O)/C=C/c3cc(OC)c(OC)c(OC)c3)sc2c1	-6.3	-1%	10	-8	-1
COc1ccc(C2=NNC(c3cccnc3)=Nc3ccc(OC)cc32)cc1	1.8	4%	-11	.	-2
C/C(=N/NS(=O)(=O)c1ccc(C)cc1)c1ccc2c(c1)OCO2	2.4	.	.	.	0
CCCSc1nc2ccccc2n1CC(=O)O	-1.2	2%	6	.	-9
O=C(NCCN1C(=O)C2C3C=CC(C3)C2C1=O)Nc1ccccc1 (stereo not given)	-1.1	-7%	0	.	-1	Arbovirus anti repeat=-1
O=C(NCC1CCCO1)c1ccc2c(c1)N(Cc1ccc(F)cc1)CCS2 (stereo not given)	0.1	.	.	.	-5
O=C1c2ccccc2C(=O)N1CC1c2ccccc2CCN1C(=O)N1CCOCC1 (stereo not given)	0.9	-10%	3	-1	-2
CC(=O)OC(C(=O)N1CCOCC1)c1c(F)cccc1F (stereo not given)	-1.0	0%	-1	.	-6
Cc1ccc(C(=O)NNC(=O)C(C)Sc2nc(N)cc(N)n2)cc1 (stereo not given)	-1.9	-7%	2	-48	3
CC1CCCCN1CC(=O)NC(c1ccccc1)c1ccccc1 (stereo not given)	-0.3	-1%	-1	.	-1
COc1ccc(-c2csc(NC3CCCCC3)n2)c(OC)c1	3.7	.	.	.	-1
O=C(Nc1ccc(F)cc1F)c1cc2ncc(Br)cn2n1	0.2	-8%	0	6	.

Among those listed so far, these have a COOH group:
SMILES	RecA intein inh	Mtb H37Rv	Arbovirus anti	YopH PTP inh	Mtb betalactam	others
O=C(/C=C/c1ccc(O)c(O)c1)OC1C(O)CC(OC(=O)/C=C/c2ccc(O)c(O)c2)(C(=O)O)CC1O (stereo not given)	-4.4	-16%	.	.	5
CCCSc1nc2ccccc2n1CC(=O)O	-1.2	2%	6	.	-9

Continued:
SMILES	RecA intein inh	Mtb H37Rv	Arbovirus anti	YopH PTP inh	Mtb betalactam	others
CCN(CC)CCCNC(=O)C(C)n1c2ccccc2c2nc(=O)cc(C)n21 (stereo not given)	-1.5	0%	.	.	-3
CC1=NN(C(N)=S)C(=O)C1N=Nc1ccccc1C(=O)O (stereo not given)	0.1	.	.	.	4
CC(C)CNC(=O)COC(=O)/C=C/c1ccco1	2.3	-3%	8	-29	2
Cc1ccc(CNC(=S)Nc2cc(C(=O)O)ccc2C)cc1	1.9	-6%	2	.	2
CC(C)CC(=O)NC(=S)NNC(=O)c1ccc([N+](=O)[O-])cc1	1.4	32%	-15	-27	30
COc1cccc(C(=O)Oc2ccc(/C=N/Nc3ccc(C(=O)O)cc3)cc2OC)c1	0.2	.	.	.	6
CCn1c(O)c(N=Nc2ccc(Cl)c(C(=O)O)c2)c2ccccc21	9.1	-5%	.	.	-6
CSc1nnc(C)c(=O)n1COC(=O)c1ccc(S(=O)(=O)N2CCCC2)cc1	2.1	2%	1	-30	-6
c1ccc(-c2ccc(CN3CCN(c4ncccn4)CC3)cc2)cc1	3.9	-1%	9	0	9
O=C(C1CCCCC1)N1CCc2[nH]c3ccc(F)cc3c2C1	-2.8	-12%	.	.	3
Nc1c(N2CCCC2)c2ccccc2oc1=O	.	1%	-3	.	3
COCCCn1c(-c2ccccc2)nc2ccccc2c1=O	-0.5	6%	0	-45	-14
C[C@H](CO)NC(=O)[C@H](C)[C@H]1C[C@]1(C)[C@H](NC(=O)OCc1ccccc1)c1ccccc1	-2.7	-4%	8	-25	0
O=S(=O)(N/N=C\C=C\c1ccccc1)c1ccc(Br)cc1	-2.4	-9%	6	-34	0
O=C(Nc1nnc(-c2ccco2)o1)c1ccc2ccccc2c1	-3.5	?	-26	-38	88
Cc1cc(C(=O)OCC(=O)N2CCOCC2)ccc1[N+](=O)[O-]	4.3	-6%	9	.	0
COC(=O)c1c(NC(=O)CSc2ncnc3[nH]ncc23)sc2c1CCC2	0.6	-5%	-13	.	81
CC(=O)Nc1ccc(NC(=O)C(C)OC(=O)CSCc2cccc(Cl)c2)cc1 (stereo not given)	0.2	.	.	.	-4
O=C(Nc1ccc(F)cc1)c1nc(S(=O)(=O)Cc2ccccc2)ncc1Cl	1.1	.	.	.	54
O=C1c2ccccc2NC(c2ccc(Cl)cc2Cl)N1O (stereo not given)	1.6	-8%	-22	-42	3

The last 2 compounds of the part above open the next one.
SMILES	RecA intein inh	Mtb H37Rv	Arbovirus anti	YopH PTP inh	Mtb betalactam	others
O=C(Nc1ccc(F)cc1)c1nc(S(=O)(=O)Cc2ccccc2)ncc1Cl	1.1	.	.	.	54
O=C1c2ccccc2NC(c2ccc(Cl)cc2Cl)N1O (stereo not given)	1.6	-8%	-22	-42	3
Cc1ccc2nc(-c3ccncc3)c(NC3CCCC3)n2c1	-7.1	-6%	19	.	-4
CC(=O)c1ccccc1NC(=O)COC(=O)/C=C/c1ccc(OC(F)F)cc1	-1.9	.	.	.	72
Cc1ccc(S(=O)(=O)NCc2ccc(C(=O)N3CCN(c4ccc([N+](=O)[O-])cc4)CC3)cc2)cc1	-3.8	.	.	.	1
CC(=O)N1CCSc2ccc(S(=O)(=O)NCCc3ccc(Cl)cc3)cc21	-1.9	.	.	.	3
CC1CCN(c2ccc(C(=O)N3CCOCC3)cc2[N+](=O)[O-])CC1	-0.7	-7%	-2	-42	-14
COc1cccc(NC(=O)CSc2nc3c(oc4ccccc43)c(=O)[nH]2)c1	1.4	-7%	-5	-29	-4
COc1ccc(OCc2cc(C(=O)NC(C)Cc3cnccn3)no2)c(Cl)c1 (stereo not given)	0.7	.	.	.	1
CC(C)n1c(CN(C)c2ccccc2)nc2ccccc21	-1.0	.	.	.	-3
CCCN(CC(=O)Nc1ccccc1C)C(=O)CCNC(=O)c1ccccc1Cl	-0.4	.	.	.	-4
CC(C)C1N=C2c3ccccc3N=C(SCC#N)N2C1=O (stereo not given)	-1.7	-9%	4	8	-7
Cc1nnc(SCC2=C(C(=O)O)N3C(=O)C(NC(=O)Cn4cnnn4)C3SC2)s1 (stereo not given)	-0.4	.	.	.	-3
Cc1cccc(NC(=O)C2CCN(c3nccc(C)n3)CC2)c1	-0.6	-2%	-6	-40	8
CCOC(=O)N1CCN(CCC(=O)Nc2cc(OC)cc(OC)c2)CC1	-1.7	1%	2	-16	-6
